High-throughput results: PubChem BioAssay, National Center for Advancing Translational Sciences (NCATS)
AmpC inh no det = inhibitors of E. coli AmpC beta-lactamase without detergent. P00811. AmpC nitrocefin hydrolysis, absorbance 480 nm, no detergent; potencies from a single point are estimates. Potency, µM (highest dose often 28.7 µM), inactives show top-dose activity change, negative = inhibition. 71,000 compounds, 1.8% hits. AID 585; active = falling curve, for most hits resting on a single point; inconclusive = weak or doubtful change; inactive = flat or rising curve; note: % of control where 0% means no effect; about half of the hits show no inhibition at the top dose; a quarter of the inactives give rising signals
Target sequence (P00811 whole entry, looked up): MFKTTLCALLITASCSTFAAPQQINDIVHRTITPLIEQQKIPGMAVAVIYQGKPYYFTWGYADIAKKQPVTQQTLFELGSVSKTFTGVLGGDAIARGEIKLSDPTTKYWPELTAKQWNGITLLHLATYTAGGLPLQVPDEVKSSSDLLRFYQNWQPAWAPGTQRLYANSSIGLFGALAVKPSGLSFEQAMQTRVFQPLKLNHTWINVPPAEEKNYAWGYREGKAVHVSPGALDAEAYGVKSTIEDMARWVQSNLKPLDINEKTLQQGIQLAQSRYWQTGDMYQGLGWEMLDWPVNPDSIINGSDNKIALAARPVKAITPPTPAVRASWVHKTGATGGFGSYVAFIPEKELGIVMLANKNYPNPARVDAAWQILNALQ
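AmpC, 20 mM phosphate pH 7.0; 15 min cpd preinc, RT; start with nitrocefin (800 uM stock); A480 kinetic read, 20 s intervals, 4 min. No-enzyme wells = negative control.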
* marks the source's active call; other numbers are inactive results; u = inconclusive; & = joins results of further samples; [ ] = dose if it differs, or a comment. Potency is the fitted concentration of half-maximal effect. Some of the compounds tested (hit frequency here may not be typical).

Compound	AmpC inh no det
O=C1C2CCCN2C(c2ccc(F)cc2)N1c1ccc(Cl)cc1 (stereo not drawn)	33%
CSc1ccccc1NC(=O)CN(c1cc(C)cc(C)c1)S(C)(=O)=O	68%
CCOC(=O)N1CCN(C(=O)C(NC(=O)C2CCC(C)CC2)C(C)C)CC1 (stereo not drawn)	27%
O=C(O)C[n+]1ccccc1	4%[5.75 µM]
CN(C)c1cccc(C(=O)n2cc(C(=O)c3cc(F)ccc3O)cn2)c1	2%
O=C(OCC(=O)N1CCc2ccccc21)c1ccccc1	-7%
CCN(CC)CCCN=Cc1c(O)n(Cc2ccc(F)cc2)c(=O)[nH]c1=O	-12%
Cc1nnc(SCCc2ccccc2)[nH]c1=O	-19%
O=C(CS(=O)(=O)Cc1ccccc1)N1CCN(C(=O)c2ccco2)CC1	0%
O=C(COc1cccc(C(F)(F)F)c1)Nc1ccc(S(=O)(=O)N2CCCC2)cc1	2%
O=C(NC1CCS(=O)(=O)C1)c1cnccn1 (stereo not drawn)	0%
N#C/C=C\Oc1ccc(Cl)cc1N	-8%
c1coc(-c2nc3c4c5c(sc4ncn3n2)CCCC5)c1	8%
CCC(=O)OCC(=O)c1c(N)n(Cc2ccccc2)c(=O)n(C)c1=O	12%
O=C(CN1C(=O)CCC1=O)Nc1nc(-c2nc3ccccc3s2)cs1	69%
O=C(c1ccc2c(c1)C(=O)N(c1ccc(Cl)cc1)C2=O)N1CCN(c2ccccn2)CC1	41%
Cc1ccc(-n2nc3ccc(N)cc3n2)cc1	7%
CC(C)=C1SC(N2CCN(Cc3ccccc3)CC2)=NC1=O	32%
COc1ccc(-c2cc(=O)oc3c(C)c(O)c(CN(C)C)cc23)cc1	24%
Cc1ccc(CCn2c3c(c4ccccc42)CN(C)CC3)cn1	33%
Clc1ccc2c(N3CCCC3)ccnc2c1	-7%
CC(=O)Nc1ccc(NC(=O)CSc2nnc(C3CC3)n2C)cc1	-8%
COc1cc(OC)cc(C(=O)NC2CCN(Cc3nnnn3Cc3cccs3)CC2)c1	75%
COC(=O)c1cc2oc(C)cc2n1CC(=O)Nc1ccc(OC)c(OC)c1OC	57%

A run of entries from further up, as a working copy:
Compound	AmpC inh no det
Cc1ccc(CCn2c3c(c4ccccc42)CN(C)CC3)cn1	33%
Clc1ccc2c(N3CCCC3)ccnc2c1	-7%
CC(=O)Nc1ccc(NC(=O)CSc2nnc(C3CC3)n2C)cc1	-8%
COc1cc(OC)cc(C(=O)NC2CCN(Cc3nnnn3Cc3cccs3)CC2)c1	75%
COC(=O)c1cc2oc(C)cc2n1CC(=O)Nc1ccc(OC)c(OC)c1OC	57%

Next part:
Compound	AmpC inh no det
O=C(Cl)c1cccc([N+](=O)[O-])c1	0%
CCCS(=O)(=O)N1CCCC(C(=O)N2CCN(c3ccccc3)CC2)C1 (stereo not drawn)	37%
Cn1c(SCC(=O)O)nnc1C1CCCCC1	14%
Cc1cc(NS(=O)(=O)Cc2ccccc2)cc(C)c1OCC(=O)N1CCOCC1	14%
CCc1nc(SCC(=O)Nc2ccccc2C(=O)OC)n[nH]1	-8%
O=C(c1cccs1)N1CCN(C2CCCCC2)CC1	-1%
COc1ccc(N2CCN(CC(=O)Nc3nnc(-c4ccccc4)s3)CC2)cc1	2%
CCN(CC)Cc1nc2c(c(=O)[nH]1)C1(CCCCC1)Cc1ccccc1-2	8%
COC(=O)c1c(NC(C)=O)sc2c1CCCC2	44%
COc1cccc(C(=O)OCCN2C(=O)c3ccccc3C2=O)c1OC	23%
CCOC(=O)C1CCN(C(=O)CCn2c(=O)[nH]c3ccccc3c2=O)CC1	4%
Cc1cccc(C)c1NC(=O)C1(N2CCN(C(=O)c3ccco3)CC2)CCCCC1	66%
O=C(CCC1COc2ccccc2O1)Nc1ccccn1 (stereo not drawn)	18%
COc1cc(Cl)c(C)cc1NC(=O)CSc1nnc(-c2cccnc2)n1Cc1ccco1	-14%
COc1ccc(CCN2C(=O)c3cccnc3C2=O)cc1OC	8%
C[C@H]1CC[C@@H]2[C@@H](C)C(=O)O[C@H]3O[C@@]4(C)CC[C@H]1[C@@]32OO4	6%[12.8 µM]
COC(=O)C1C2c3ccccc3OC1(C)N=c1s/c(=C/c3cnn(C)c3)c(=O)n12 (stereo not drawn)	154%
COC(=O)[C@H](C)NC(=O)Nc1ccccc1F	-11%
Cc1cc(O)c(C=Nc2cccc(Cl)c2)c(=O)o1	7%
COc1ccccc1Nc1nc(N)nc(CN2CCCCCC2)n1	-7%
Cc1ccc2nc3c(c(C(=O)O)c2c1)CCC3	-10%
CCN1CCN(C(=O)C2CCN(C(=O)c3cc4sccc4n3CC)CC2)CC1	81%
CCCNC(=O)C1CC(=O)N(c2ccc(OCC(=O)Nc3cc(C)cc(C)c3)cc2)C1 (stereo not drawn)	35%
Cn1cccc1C(=O)N1CCC2(CCCN(C(=O)Nc3ccccc3)C2)CC1	21%
CCOC(=O)Cc1csc(NC(=O)CSc2nnc(C)n2C)n1	4%
CCOC(=O)c1c(NC(=O)CN2CCOCC2)sc2c1CCCC2=O	87%
Cc1c(NC(=O)NC(=O)c2ccc(F)cc2)c(=O)n(-c2ccccc2)n1C	0%
N#CC1=C(N)OC2=C(C(=O)CCC2)C1c1ccsc1 (stereo not drawn)	-4%
c1coc(-c2ncc[nH]2)c1	10%
CCOC(=O)c1oc2ccccc2c1CSc1nnc(-c2ccco2)o1	24%
O=C(NC1CCCC1)c1cccnc1N1CCCCCC1	3%
CC[C@@]1([N+](=O)[O-])C[C@H]2C=C[C@@H]1C2	-3%[5.75 µM]
O=C(CC(NS(=O)(=O)c1ccc(Cl)cc1)c1ccco1)NCc1cccnc1 (stereo not drawn)	6%
Cn1c(=O)cc(OCC(=O)N2CCCc3ccccc32)c2ccccc21	58%
Cc1cc(NC(=O)CSc2nnc(COc3ccccc3)n2Cc2ccco2)no1	-22%
O=C(CSc1cc(Cl)ccc1Cl)NCC1CCCO1 (stereo not drawn)	-19%
O=C(COC(=O)c1ccccc1)NCC1CCCO1 (stereo not drawn)	1%
CC(OC(=O)c1nsc(Cl)c1Cl)C(=O)NCc1cccs1 (stereo not drawn)	12%
CCN(CC)CCCN1C(=O)C(=O)/C(=C(/O)c2c(C)nc3ccccn23)C1c1ccc(C)o1 (stereo not drawn)	-8%
O=C(CN1CCCC1)Nc1ccc(NC(=O)Nc2ccccc2Cl)cc1	4%
O=C1[C@@H]2[C@@H](C(=O)N1c1ccc(OCc3ccccc3)cc1)[C@@H]1c3ccccc3[C@@H]2[n+]2ccccc21	29%[5.75 µM]
CC(=O)Nc1ccc(OC(=O)c2cccs2)cc1	3%
Cc1ccc(C)c(Cn2nnc3c(=O)[nH]c(C4CCCN(C(=O)C5CCCCC5)C4)nc32)c1 (stereo not drawn)	87%
COC(=O)C1=C(C)NC(=O)CC1c1ccc(F)c(Br)c1 (stereo not drawn)	8%
c1coc(CNc2c3c(nc4ccccc24)CCC3)c1	-6%
CCc1ccc2oc(=O)cc(CN3CCOCC3)c2c1	12%
COc1cccc(C2CC(c3ccccc3C)n3nc(N)nc3N2)c1 (stereo not drawn)	4µM*[single pt active]
O=C(O)CSC12CC3CC(C1)CC(C(=O)O)(C3)C2	-10%
COC(=O)c1cnn(C(=O)c2cc(OC)ccc2Br)c1N	0%
CCCCCCCC(=O)Cl	-8%
COC(=O)C1=C(C)N=c2s/c(=C/c3cccs3)c(=O)n2C1c1cccs1 (stereo not drawn)	-1%
CCSc1nnc(-c2cccc(S(=O)(=O)N(C)C)c2)n1-c1cc(OC)ccc1OC	128%
CCCc1nc2ccccc2c(C(=O)OC2CCOC2=O)c1CC (stereo not drawn)	32%
c1ccc([P+](CC[P+](c2ccccc2)(c2ccccc2)c2ccccc2)(c2ccccc2)c2ccccc2)cc1	33%[5.75 µM]
O=C(Nc1cccc(Cl)c1)Nc1ccc2c(c1)OCO2	-23%
CC1(C)CC(=O)C2=C(C1)N(CC1CCCO1)C(=O)C2(NC(=O)c1cccnc1)C(F)(F)F (stereo not drawn)	11%
CCn1c(CNc2ccc(OC)cc2)nnc1SCC(=O)c1ccc(OC)cc1	66%
O=C(COc1ccccc1Cl)N1CCCC1	-1%
Cc1ccccc1-n1c(-c2cccnc2)n[nH]c1=S	-4%
CCNc1ncc2nc(C)c(=O)n(CCC#N)c2n1	2%

Carrying on.
Compound	AmpC inh no det
O=S(=O)(c1ccccc1)N1CCC2(CCN(c3ccncc3)CC2)CC1	27%
CCOc1ccc(OCc2ccc(C(=O)O)o2)cc1	-3%
CO[C@@H]1/C=C\O[C@]2(C)Oc3c(C)c(O)c4c(O)c(cc(O)c4c3C2=O)NC(=O)/C(C)=C\C=C/[C@H](C)[C@@H](O)[C@H](C)[C@H](O)[C@H](C)[C@H](OC(C)=O)[C@@H]1C	16%[5.75 µM]
OCC(Br)CBr (stereo not drawn)	-13%
CCOC(=O)N1CCC(NC(=O)CN2C(=O)COc3ccc(C(C)(C)C)cc32)CC1	90%
CCCS(=O)(=O)N1CCC(C(=O)NCCN2CCC(Cc3ccccc3)CC2)CC1	10%
COc1ccc(S(=O)(=O)NC2(C(F)(F)F)N=C3SCCN3C2=O)cc1 (stereo not drawn)	-6%
OCCN1CCN(Cc2cc(Br)cc(Br)c2O)CC1	4%
COc1ccc(OC)c(C(=O)CSc2nnc(-c3cccs3)n2C)c1	8%
CCC/C=C(\CCC)C(NP(=O)(c1ccccc1)c1ccccc1)c1ccc(C(F)(F)F)cc1 (stereo not drawn)	14%
OCC#CCSc1nnc(-c2ccccc2Br)o1	4%
CC(=O)Nc1nc2c(c3c1c(=O)oc1ccccc13)CCCC2	6%

Gathered by group, those above with a COOH group
Compound	AmpC inh no det
O=C(O)C[n+]1ccccc1	4%[5.75 µM]
Cn1c(SCC(=O)O)nnc1C1CCCCC1	14%
Cc1ccc2nc3c(c(C(=O)O)c2c1)CCC3	-10%
O=C(O)CSC12CC3CC(C1)CC(C(=O)O)(C3)C2	-10%
CCOc1ccc(OCc2ccc(C(=O)O)o2)cc1	-3%

Next section:
SMILES | AmpC inh no det
O=S(=O)(c1ccc(Br)cc1)N1CCn2c(nc3ccccc32)C1 | -4%
CS(=O)(=O)N(CC(=O)N1CCN(Cc2ccccc2)CC1)Cc1ccccc1 | 84%
C=CCOCC1CO1 (stereo not drawn) | 3%
CSc1nnc(Cc2cc(=O)[nH]c(=O)[nH]2)n1-c1cccc(C)c1 | -16%
Oc1c(C(c2cccs2)N2CCN(c3ccc(F)cc3)CC2)sc2ncnn12 (stereo not drawn) | 87%
N[C@@H](Cn1ccc(=O)n(Cc2ccc(C(=O)O)cc2)c1=O)C(=O)O | -7%
O=C(O)C(Cl)(Cl)Cl | -8%&-2%
CCOc1ccc(N2C(=O)CC(Sc3ncccn3)C2=O)cc1 (stereo not drawn) | 0%
COc1ccc(S(=O)(=O)N(C)CC(=O)N2CCCCCC2)cc1OC | 27%
COc1cccc(C(=O)NCC(c2cccnc2)N2CCN(c3ccccc3OC)CC2)c1 (stereo not drawn) | 116%
O=C1c2ccccc2C(Nc2ccccc2F)N1c1cccnc1 (stereo not drawn) | 4µM*[single pt active]
Cc1ccc(Cn2nnc3c(=O)[nH]c(C4CCN(C(=O)c5cccs5)CC4)nc32)cc1 | 60%
COc1ccc(N2CCN(C(=O)C3CCCN(S(=O)(=O)c4cccc5cccnc45)C3)CC2)cc1 (stereo not drawn) | 128%
O=C1CCN2C=Nc3cccc4ccc1c2c34 | 4%
Cc1ccccc1Cn1c(CN2CCc3ccccc3C2)nc2c1c(=O)n(C)c(=O)n2C | 134%
O=C(NC1CC1)C1C2C3C4CC5C3C5C4C12 (stereo not drawn) | -10%
O=C(O)CSc1ncn[nH]1 | -5%
COc1ccccc1N1CCN(CCN(C(=O)c2ccc(I)cc2)c2ccccn2)CC1 | 149%
Cc1cn(C2OC(COC(=O)c3ccccc3)C(O)C2O)c(=O)[nH]c1=O (stereo not drawn) | -3%
COC(=O)CC(=O)CSc1nc(C)cc(C)c1C#N | 24%
CSCCC(NC(=O)COc1ccccc1)C(=O)N1CCN(c2ccccc2F)CC1 (stereo not drawn) | 34%
CC1(C)CC(=O)c2sc(NS(=O)(=O)Cc3ccccc3)nc2C1 | -5%
O=C(NCc1cccnc1)c1cccc(NC(=O)c2ccco2)c1 | -5%
COc1ccc(Cn2c3nc4ccccc4nc3c3c(=O)n(Cc4ccco4)cnc32)cc1 | 94%
CCOc1ccc(-n2c(=O)c3sccc3n(CC(=O)NCc3ccco3)c2=O)cc1 | -24%
CCOc1nc(-c2ccc(OC)cc2)ccc1-c1noc(-c2cccnc2)n1 | 10%
Cc1cc(C)cc(NC(=O)c2nnn(Cc3cc(C)ccc3C)c2N)c1 | -23%
CCOC(=O)C1CCN(C(=O)Nc2ccc3nc(-c4ccco4)c(-c4ccco4)nc3c2)CC1 | 44%
COc1ccc(CCNc2ncnc3c2oc2ccccc23)cc1OC | 59%
CC1=C(C#N)C(Nc2cccc(C)n2)(C(F)(F)F)C(=O)N1 (stereo not drawn) | 2%
CC(=O)N1CCN(Cc2nc3cc(NC(=O)C4CCCCC4)ccc3n2C)CC1 | 35%
Cc1c(-c2nc(N)nc(Nc3ccccc3)n2)oc2ccccc12 | 98%
CC(C)(C)NC(=O)C1CCN(S(=O)(=O)c2ccc(Br)cc2)CC1 | 14%
Nc1nc(NCc2c(F)cccc2Cl)nn1-c1ccccc1 | -3%
O=c1c(O)c(-c2ccc(O)cc2)oc2cc(O)cc(O)c12 | u
